Ecoli rRNA inh: reduced GFP signal of wild-type E. coli, primary screen, bacterial rRNA inhibitor project, GFP/RFP fluorescence, OD600, single point. E. coli WT GFP vs humanized-ribosome RFP mutants, 24 h; stronger effect = lower value; DMSO median 0, no signal -100. 1.6% of 350,000 active. GFP signal change (wild-type ribosome), % (test concentration not listed);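 active = significant combined selectivity score with lowered wild-type GFP, culture density cut under 30%, mutant RFP and density less affected; inactive = any of these conditions unmet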; note: one replicate is shown; some compounds called inactive have numbers as strong as hits
FGF22 binding: binders of human FGF22 protein, primary screen, FGF22 synaptogenesis inhibitor project, biophysical, thermal shift, single point; Fibroblast growth factor 22 (Homo sapiens), Q9HCT0; recombinant FGF22 thermal shift, SYPRO orange fluorescence; percent of sucrose octasulfate shift, DMSO zero; calls only at 9.99 µM; 1.5% of 340,000 active; AID 651658, 2012;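 active = melting point raised past a set limit in the mean and every replicate; three in four hits are not shown here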
Target sequence (Q9HCT0 whole entry, looked up): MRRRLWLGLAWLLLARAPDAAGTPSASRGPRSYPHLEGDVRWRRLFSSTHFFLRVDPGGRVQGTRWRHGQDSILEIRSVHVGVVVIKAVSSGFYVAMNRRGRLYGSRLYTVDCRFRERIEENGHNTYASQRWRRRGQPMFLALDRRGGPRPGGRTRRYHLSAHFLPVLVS
Ecoli rRNA inh OD600: also measured in Ecoli rRNA inh; calls as there; OD600 change, %; measured here: OD600 growth;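 optical density of the mix in the first replicate; 0 = DMSO median and -100 = no signal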
Ecoli rRNA inh RFP: second read-out of Ecoli rRNA inh, no call of its own (marks repeat the call); RFP signal change, %; measured here: RFP humanized mutant strains;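 first replicate; 0 = DMSO median and -100 = no signal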
* hit, by the source's call; i = inactive; & = joins results of further samples.

SMILES | Ecoli rRNA inh | Ecoli rRNA inh OD600 | Ecoli rRNA inh RFP | FGF22 binding
Cc1cccc(-c2ccc(C3[C@@H]4CN(Cc5cccc(F)c5)C[C@H]3N4)cc2)c1 (stereo partly drawn) | -56&-55 | -81&-76 | -20&-15 | i
CC(C)CC#Cc1cnc2c(c1)C(=O)N([C@H](C)CO)C[C@@H](C)[C@@H](CN(C)Cc1ccccc1C(=O)O)O2 | 1 | -2 | -0.9 | i
COc1cccc(S(=O)(=O)Nc2ccc3c(c2)C(=O)N(C)C[C@H](OC)[C@@H](C)CN(C(=O)Cc2cccnc2)[C@@H](C)CO3)c1 | 2 | -1 | -0.1 | i
C[C@H]1CN([C@@H](C)CO)C(=O)c2ccccc2-c2ccccc2CO[C@H]1CN(C)C(=O)[C@@H](Cc1ccccc1)N(C)C | -1 | 0 | -0.5 | i
C[C@H](CO)N1C[C@H](C)[C@H](CN(C)Cc2ccc(-c3ccccc3)cc2)Oc2ncc(C#C[C@@H](C)O)cc2C1=O | 2 | -7 | 2.3 | i
CCC(=O)N(C)C[C@@H]1Oc2ncc(-c3ccccc3C)cc2C(=O)N([C@H](C)CO)C[C@H]1C | -3 | 4 | -1.8 | i
C[C@@H]1CCCCO[C@H](CN(C)C(=O)NC2CCCCC2)[C@@H](C)CN([C@@H](C)CO)C(=O)c2cc(NC(=O)NC3CCCCC3)ccc2O1 | -1 | -7 | -3.2 | i
COc1ccc(S(=O)(=O)Nc2ccc3c(c2)C(=O)N([C@@H](C)CO)C[C@@H](C)[C@H](CN(C)C(=O)NC2CCCCC2)OCCCC[C@H](C)O3)cc1 | 1 | -12 | 0.8 | i
COc1ccccc1NC(=O)N1C[C@H]2[C@@H](c3ccccc31)[C@H](CO)N2C(C)=O | 0 | -4 | 0.8 | i
C[C@H](NC(=O)C[C@@H]1C[C@@H]2c3cc(NC(=O)C4CCC4)ccc3O[C@@H]2[C@@H](CO)O1)c1ccccc1 | 16&1 | 17&0 | 3.8&1.3 | i
C[C@H]1CN([C@@H](C)CO)C(=O)c2cc(C#CC3CCCC3)cnc2O[C@@H]1CN(C)C(=O)C1CCCCC1 | 5 | 11 | 2.7 | i
C[C@H](CO)N1C[C@H](C)[C@@H](CN(C)Cc2ccccc2)OCc2ccccc2-c2ccccc2C1=O | -2 | 6 | -2.8 | i
CCC(=O)N(C)C[C@H]1Oc2cc(C#CCC3CCCC3)ccc2S(=O)(=O)N([C@@H](C)CO)C[C@H]1C | -12 | -44 | 20 | i
CO[C@@H]1CC[C@@H]2CCN(C)C(=O)C[C@@H](c3ccccc3)CN(C)C(=O)c3cccc(C#N)c3OC[C@@H]1O2 | 0 | 5 | -3.2 | i
C[C@H](CO)N1C[C@H](C)[C@H](CN(C)Cc2ccncc2)OCCCC[C@H](C)Oc2ccc(NS(=O)(=O)c3ccccc3)cc2C1=O | -3 | -1 | 2.5 | i
CO[C@@H](CN(C)Cc1cc(F)ccc1F)[C@H](C)CN([C@H](C)CO)S(=O)(=O)c1ccc(C)cc1 | 0 | -5 | 4.6 | i
C[C@H]1CCCCO[C@H](CN(C)C(=O)CCCN(C)C)[C@@H](C)CN([C@@H](C)CO)C(=O)c2cc(NC(=O)Nc3ccccc3)ccc2O1 | -2 | 1 | -0.8 | i
Cc1ccc(S(=O)(=O)N(C)C[C@H]2OCCCC[C@H](C)Oc3ccc(NC(=O)Nc4ccccc4)cc3C(=O)N([C@H](C)CO)C[C@@H]2C)cc1 | 2 | 11 | 1.2 | i
COCC(=O)NC[C@@H]1[C@H](c2ccccc2)[C@H](CO)N1C(=O)c1ccccc1 | -4 | -1 | -1.7 | i
O=C(C[C@H]1CC[C@H]2[C@@H](COC[C@@H](O)CN2Cc2nccs2)O1)NCc1ccc(-c2ccccc2)cc1 | -5 | -10 | -0.6 | i
O=S(=O)(c1ccccc1)N1C[C@H]2[C@@H](c3ccccc31)[C@H](CO)N2Cc1ccc(F)cc1 | -53 | -73 | -11 | i
COc1ccc(S(=O)(=O)Nc2ccc3c(c2)CC(=O)N([C@H](C)CO)C[C@@H](C)[C@H](CN(C)Cc2ccc(-c4ccccc4)cc2)O3)cc1 | 3 | 8 | -2.3 | i
COC(=O)[C@]12C[C@H](CC(=O)N3CCSCC3)C(=O)N(Cc3ccc4c(c3)OCO4)C1=C[C@H](COCc1ccccc1)O[C@@H]2C | -1 | -5 | 7.5 | i
CC(C)NC(=O)Nc1ccc2c(c1)CC(=O)N([C@H](C)CO)C[C@H](C)[C@H](CN(C)S(=O)(=O)c1cccs1)O2 | 1 | -1 | -2.7 | i
CCC(=O)Nc1ccc2c(c1)C(=O)N(C)[C@H]1CC[C@@H](CC(=O)NC3CCCC3)O[C@@H]1CO2 | 1 | 5 | -2.4 | i
C[C@@H]1CN([C@H](C)CO)C(=O)c2cccc(NS(=O)(=O)c3ccccc3)c2O[C@@H]1CN(C)C(=O)Nc1ccc(C(F)(F)F)cc1 | -19 | -30 | -3.1 | i
C[C@@H]1CN([C@@H](C)CO)S(=O)(=O)c2ccc(C#C[C@@H](C)O)cc2O[C@H]1CN(C)Cc1ccncc1 | -11 | -11 | -0.6 | i
C[C@H]1CCCCO[C@@H](CN(C)C(=O)Nc2ccc(C(F)(F)F)cc2)[C@@H](C)CN([C@@H](C)CO)C(=O)c2cc(NC(=O)Nc3cccc4ccccc34)ccc2O1 | 3 | 7 | -0.3 | i
C[C@H]1CN([C@@H](C)CO)C(=O)c2cc(/C=C/c3ccccc3)cnc2O[C@@H]1CN(C)C(=O)Cc1ccccn1 | -5 | 0 | 1.0 | i
CCNC(=O)C[C@@H]1CC[C@@H]2[C@H](COC[C@H](O)CN2C(=O)c2ccccn2)O1 | 6 | 6 | -2.9 | i
COC(=O)C[C@H]1CC[C@H]2[C@@H](COC[C@H](O)CN2S(=O)(=O)c2ccccc2C)O1 | -2 | 4 | -1.4 | i
COc1ccc(NC(=O)N(C)C[C@@H]2Oc3ncc(-c4ccc(C#N)cc4)cc3C(=O)N([C@@H](C)CO)C[C@@H]2C)cc1 | -3 | 0 | -4.3 | i
COc1cccc(NC(=O)N[C@@H]2C=C[C@@H](CC(=O)Nc3ccccc3)O[C@H]2CO)c1 | -1 | 5 | -0.7 | i
CC(C)(C)[S@@](=O)N1Cc2cc(C(=O)NCc3ccccc3F)nc(-c3cccc(-c4cncnc4)c3)c2[C@H]1CCO | -30 | -52 | 30 | i
C[C@@H]1CN([C@H](C)CO)C(=O)Cc2cc(NC(=O)NC3CCCCC3)ccc2O[C@H]1CN(C)Cc1ccc(C(F)(F)F)cc1 | 1 | -11 | 2.0 | i
Cc1noc(C)c1NC(=O)N(C)C[C@H]1Oc2ncc(C#CC3CC3)cc2C(=O)N([C@@H](C)CO)C[C@@H]1C | 4 | 4 | 3.8 | i
O=C(NCC[C@H]1CC[C@@H](NC(=O)C2CCCCC2)[C@@H](CO)O1)Nc1ccc(Cl)cc1 | -53 | -62 | -9.3 | i
Cc1ccc(-c2ccc([C@H]3[C@@H](CO)N4C(=O)CN(C(=O)c5cccnc5)C[C@@H]34)cc2)cc1 | 1 | -4 | -5.3 | i
O=C(Nc1cccc(Cl)c1)N1C[C@@H]2[C@H](c3ccccc31)[C@H](CO)N2Cc1cccnc1 | -29 | -25 | 8.6 | i
CCCC#Cc1ccc2c(c1)O[C@H](CN(C)CC1CCOCC1)[C@@H](C)CN([C@H](C)CO)S2(=O)=O | -8 | -43 | 17 | i
O=C(Nc1cccc(F)c1)N1CC(=O)N2[C@H](C1)[C@@H](c1ccc(Br)cc1)[C@@H]2CO | -14 | -52 | 23 | i
C[C@@H]1CN([C@@H](C)CO)C(=O)Cc2cc(NC(=O)Nc3ccccc3)ccc2O[C@H]1CN(C)S(C)(=O)=O | -1 | 8 | 0.0 | i
CN1CCN(C(=O)C[C@H]2CC[C@H]3[C@@H](COC[C@@H](O)CN3C(=O)Cc3ccccc3)O2)CC1 | 5 | 3 | -4.2 | i
Cc1ccc(S(=O)(=O)N(C)C[C@@H]2Oc3cc(C#Cc4ccncc4)ccc3S(=O)(=O)N([C@H](C)CO)C[C@H]2C)cc1 | -3 | -4 | 6.8 | i
C[C@@H]1CN([C@@H](C)CO)C(=O)c2cc(NC(=O)CCC(F)(F)F)ccc2O[C@@H](C)CCCCO[C@H]1CN(C)S(=O)(=O)c1ccc(Cl)cc1 | 1 | -3 | 1.4 | i
C[C@H](NC(=O)C[C@@H]1CC[C@H](NC(=O)c2cccnc2)[C@@H](CO)O1)c1ccccc1 | 2 | 7 | -0.8 | i
O=C(N[C@H]1CC[C@H](CCNS(=O)(=O)c2ccc(F)cc2)O[C@H]1CO)C1CC1 | 0 | -7 | -0.5 | i
O=C(N[C@H]1CC[C@H](CCn2cc(Cc3ccccc3)nn2)O[C@@H]1CO)c1ccccn1 | -2 | 0 | -0.5 | i
COc1ccc(NC(=O)N[C@H]2CC[C@@H](CC(=O)NC3CCC3)O[C@H]2CO)cc1 | 0 | -2 | 0.1 | i
COc1ccc(S(=O)(=O)N(C)C[C@H]2Oc3ccc(NC(=O)Nc4cccc5ccccc45)cc3CC(=O)N([C@@H](C)CO)C[C@H]2C)cc1 | 6 | 3 | 3.1 | i
C[C@@H]1CN([C@@H](C)CO)C(=O)c2cc(-c3ccccc3)cnc2O[C@@H]1CN(C)C(=O)Cc1cccnc1 | 2 | -1 | -2.4 | i
CCCC#Cc1ccc2c(c1)O[C@@H](CN(C)C(=O)c1ccncc1)[C@H](C)CN([C@H](C)CO)S2(=O)=O | -4 | -18 | -2.8 | i
COC(=O)c1cc2c(c3c4cc(OC)ccc4n(S(=O)(=O)c4ccc(F)cc4)c13)C(=O)N(Cc1ccccc1)C2 | 11 | 14 | 32 | i
C[C@@H]1CN([C@H](C)CO)C(=O)c2cccc(NS(=O)(=O)c3cccs3)c2O[C@@H]1CN(C)Cc1ccc2c(c1)OCO2 | 2 | 5 | -2.3 | i
CCCN(C)C[C@H]1OCCCC[C@H](C)Oc2ccc(NS(=O)(=O)c3ccc(Cl)cc3)cc2C(=O)N([C@@H](C)CO)C[C@H]1C | 2 | -2 | 1.6 | i
C[C@H]1CN([C@@H](C)CO)C(=O)c2cc(NC(=O)CCN3CCOCC3)ccc2O[C@@H]1CN(C)Cc1ccc(C(=O)Nc2ccccc2N)cc1 | 3 | -2 | -4.0 | i
COc1cccc(-c2cn(CC[C@H]3CC[C@H](NC(=O)CC4CC4)[C@@H](CO)O3)nn2)c1 | -3 | 0 | 1.4 | i
CCCNC(=O)Nc1ccc2c(c1)C(=O)N(C)C[C@@H](OC)[C@H](C)CN(Cc1cccnc1)[C@H](C)CO2 | -1 | 1 | -2.5 | i
C[C@@H]1CN([C@@H](C)CO)C(=O)c2cc(C3=CCCC3)cnc2O[C@@H]1CN(C)C(=O)Nc1cccc(F)c1 | -5 | -12 | 1.3 | i
C[C@H](CO)N1C[C@H](C)[C@H](CN(C)S(=O)(=O)c2ccc(F)cc2)Oc2ccc(NS(=O)(=O)c3cccs3)cc2CC1=O | 0 | -2 | 1.5 | i
COc1ccc(CN(C)C[C@H]2Oc3ccc(NC(=O)Nc4c(C)noc4C)cc3C(=O)N([C@@H](C)CO)C[C@H]2C)cc1 | 2 | 5 | -1.1 | i

Assay outcomes (PubChem)

Not all compounds are listed; the hit share may differ from the screen's.
